# Beta2AR agonist: activates human beta-2 adrenergic receptor causing internalization. Am2.2-beta2AR cells, FAP receptor internalization, flow cytometry; reference of the scale not given here. response, % (test concentration not listed). actives 0.43% (n = 340,000). AID 504454;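 active = response above a set limit, near 3 SD of response in nonfluorescent compounds, cut at about 42% in these data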;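 also: stock transfer was 100 nL into about 11 µL; a reference agonist was the positive control; negative values mostly stem from fluorescent compounds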
# Target sequence (P07550 whole entry, looked up): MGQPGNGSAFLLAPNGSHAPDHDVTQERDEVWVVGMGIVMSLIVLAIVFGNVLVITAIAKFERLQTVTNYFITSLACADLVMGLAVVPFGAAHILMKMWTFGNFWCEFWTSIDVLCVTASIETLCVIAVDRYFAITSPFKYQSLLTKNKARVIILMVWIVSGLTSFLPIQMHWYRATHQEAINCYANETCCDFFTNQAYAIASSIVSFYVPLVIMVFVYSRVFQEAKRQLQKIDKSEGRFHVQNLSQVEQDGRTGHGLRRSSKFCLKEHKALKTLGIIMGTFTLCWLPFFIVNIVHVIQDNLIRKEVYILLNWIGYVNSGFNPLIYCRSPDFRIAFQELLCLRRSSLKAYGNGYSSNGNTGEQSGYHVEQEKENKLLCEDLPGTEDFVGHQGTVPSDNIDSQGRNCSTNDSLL
# Calb FLC: affects C. albicans growth with fluconazole; AID 1979; actives 0.57% (n = 300,000); growth inhibition, % (test concentration not listed); C. albicans CaCi-2 (fluconazole-resistant clinical isolate) + fluconazole, Alamar Blue growth, 48 h;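 active = most replicates above 75%; inconclusive = exactly half above 75%; inactive = most below 75%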;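 also: all wells also contain fluconazole at 8 µg/ml as a sub-toxic cotreatment; 0% = median of DMSO wells and 100% = median of geldanamycin control wells; wells of about 8 µL received 7.5 nL stock; the first replicate is given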
# Beta cell apopt: beta cell apoptosis inhibition | INS-1E cytokine-induced death, ATP luminescence, 48 h; percent of positive-control rescue, neutral wells zero | protection from apoptosis, % (concentration not given with the values) | actives 0.8% (n = 300,000) | AID 435005;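 active = all replicates at 75% or more, or half of them and the mean; inconclusive = half reach 75% but not the mean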;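 also: 0% = cytokine-treated negative control wells and 100% = positive control rescue; higher means more ATP so stronger rescue from cytokine killing; wells of about 40 µL received 100 nL stock; the first replicate is given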
# Ecoli rRNA inh: inhibits bacterial ribosomal RNA function over humanized ribosomes. actives 1.6% (n = 350,000). GFP signal change (wild-type ribosome), % (concentration not given with the values). E. coli WT GFP vs humanized-ribosome RFP mutants, fluorescence, 24 h; hits give low values; DMSO median 0, no signal -100;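 active = significant combined selectivity score with lowered wild-type GFP, culture density cut under 30%, mutant RFP and density less affected; inactive = any of these conditions unmet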; also: one replicate is shown; some compounds called inactive have numbers as strong as hits
# ALR inh: blocks human ALR sulfhydryl oxidase activity | purified ALR, DTT oxidation, H2O2 HRP-luminol luminescence | inhibition, % (no concentration beside the values) | P55789 | actives 3.8% (n = 290,000);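 active = mean and each replicate at 75% or more; inconclusive = only one of the two met; inactive = neither met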;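 also: stock transfer was 7.5 nL into about 7.5 µL; 0% = neutral wells and 100% = wells with inactivated enzyme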
# Target sequence (P55789 whole entry, looked up): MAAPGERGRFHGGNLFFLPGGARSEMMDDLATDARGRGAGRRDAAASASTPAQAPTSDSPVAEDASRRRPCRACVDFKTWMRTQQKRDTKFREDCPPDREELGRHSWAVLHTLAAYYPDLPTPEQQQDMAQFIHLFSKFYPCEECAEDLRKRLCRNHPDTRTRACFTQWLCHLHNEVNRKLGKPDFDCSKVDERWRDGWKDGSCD
# T cruzi repl: T. cruzi replication inhibition; T. cruzi beta-gal in NIH3T3, luminescence, 90 h; inhibition, % (test concentration not listed); actives 1.4% (n = 300,000);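 active = mean inhibition across valid replicates above about 55%, limit read from the data; inconclusive = mean below that limit but half or more replicates reach it; inactive = mean below it, under half of replicates reach it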;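 also: signal also drops with host cell toxicity which is not excluded here; 0% = plate median of DMSO wells and 100% = zero luminescence signal; higher percent means less beta-gal luminescence so fewer parasites; stock transfer was 50 nL into about 50 µL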
# LANA-H2B inh: blocks KSHV LANA binding to histone H2A/H2B. Q9QR71. cell-free LANA-H2A/H2B peptide, fluorescence polarization. inhibition, % (no concentration beside the values). actives 0.6% (n = 320,000). AID 2629; in the data active = inhibition mostly above about 10%, no sharp cut-off; inactive = mostly below about 6.7%;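 also: stock transfer was 7.5 nL into about 10 µL; 0% = median of vehicle wells and 100% = median of positive control wells; one replicate is shown; the record names a cut of 25% in any replicate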
# Bfl-1 A1 inh: inhibitors of the anti-apoptotic protein A1, read as caspase activation; caspase activation, % (no concentration beside the values); AID 2462; MEF A1-2A-BIM cells, Caspase-Glo 3/7 luminescence, 3 h; percent of clofoctol response, vehicle zero; actives 0.066% (n = 330,000);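 active = over half of replicate activation scores above 10%, or exactly half above 10 with the replicate mean above 10; inconclusive = replicate mean below 10 yet half the replicates above 10; inactive = over half of replicates below 10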;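 also: wells of about 30 µL received 50 nL stock; many hits fall short of the cut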
# Ecoli rRNA inh OD600: recorded beside Ecoli rRNA inh, whose call it bears; OD600 change, %; measured here: OD600 growth;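 optical density of the mix in the first replicate; 0 = DMSO median and -100 = no signal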
# Ecoli rRNA inh RFP: also measured in Ecoli rRNA inh; calls as there; RFP signal change, %; measured here: RFP humanized mutant strains;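 first replicate; 0 = DMSO median and -100 = no signal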
# * hit, by the source's call; ? = inconclusive; . = no result given. The list is partial (hit frequency here may not be typical).
Molecule	Beta cell apopt	ALR inh	Bfl-1 A1 inh	Calb FLC	LANA-H2B inh	Beta2AR agonist	Ecoli rRNA inh	T cruzi repl	Ecoli rRNA inh OD600	Ecoli rRNA inh RFP
CCC(=O)Nc1ccc(Nc2ccccc2)cc1	2	.	0.1	-33	5.2	-3	.	0	.	.
COc1ccccc1/C=N/NC(=O)c1c(-c2ccccc2)noc1C	-13	0	0.0	-6	-1.0	-8	-4	-5	3	-1.5
O=[N+]([O-])c1cccc(-c2cc3ccccc3[nH]2)c1	0	0	-2.1	-3	-2.5	5	13	-3	14	1.5
Clc1ccccc1CN1CCN(/N=C/c2ccncc2)CC1	8	-1	-0.5	-1	7.2	-3	1	-2	-16	0.7
CCOCCCNCc1cc(Cl)ccc1OCC	-7	.	-0.4	-9	-3.8	0	1	8	1	0.6
Cc1noc(C)c1COC(=O)c1cccc(N(C)C)c1	0	22	-0.3	21	6.6	-4	-4	3	-5	-0.4
Cc1ccn2cc(CSc3ccccc3N)nc2c1	-4	29	-1.1	-37	0.4	0	.	-15	.	.
CC(=O)NC12CC3CC(C)(C1)CC(NC(C)=O)(C3)C2	-5	-9	-0.3	18	-12	0	13	-26	14	-8.4
COc1cc(/C=N\Nc2nc(-c3ccc(C)cc3)c(NC(C)=O)s2)ccc1O	2	44	0.3	5	2.4	3	-9	3	-7	2.0
CN1CCCN(C(=O)CC2(CC(=O)O)CCCCC2)CC1	0	-7	-0.2	-5	-1.6	-4	15	-5	7	0.8
CCOC(=O)c1c(=O)n(O)c2ccc(OC)cc2[n+]1[O-]	-3	-54	0.9	-9	82*	9	.	-10	.	.
COc1ccccc1-n1cc(C(=O)NCC(=O)N2CCN(c3ccccn3)CC2)c2ccccc2c1=O	-1	1	-0.8	1	2.9	1	-10	-2	1	6.2
COc1ccc(NCc2cc3cc(OC)ccc3[nH]c2=O)cc1	6	35	0.3	-1	2.7	0	-9	-5	6	5.7
CCCN(CC(=O)Nc1ccccc1C)C(=O)Cc1cccs1	-1	-2	0.2	.	5.0	-4	1	.	7	-0.4
COc1cccc(C(C)N(C)Cc2nc(-c3ccoc3)oc2C)c1 (configuration not stated)	1	0	-0.3	-36	1.4	-2	.	1	.	.
O=C(CNS(=O)(=O)c1ccc(F)c(Cl)c1)N1CCCC1	0	6	0.2	-2	-3.5	11	12	-25	9	-0.8
Cc1ccc2c(c1)c1c(n2CC(O)CNC(CO)(CO)CO)CCCC1 (configuration not stated)	0	96*	-0.4	3	5.7	2	6	-2	3	-5.0
Cc1nn(Cc2cccc(C(N)=O)c2)c(C)c1Br	-6	-6	0.5	-4	-2.5	-1	-17	1	-8	0.3
CCOc1ccc(-c2cc(C)n3nc(C(N)=O)cc3n2)cc1	3	0	2.8	3	1.3	-3	.	-18	.	.
O=C(NCc1cccnc1)Nc1ccc2c(c1)OCO2	1	-5	-0.4	-7	0.3	-2	14	-1	13	-0.4
N#Cc1ccc(Oc2ccc(C(F)(F)F)cc2NC(=O)c2ccc(F)cc2)cc1	.	-2	1.0	18	0.0	-2	-9	25	-5	-2.1
CCN(CC)S(=O)(=O)c1ccc2c(c1)nc(CCC(=O)OCC(=O)Nc1cc(Cl)cc(Cl)c1)n2C	-16	-1	-1.0	13	2.8	6	.	-3	.	.
COc1ccc(C(CCN2CCCC(C)C2)c2c(OC)cc(OC)c3c(C)cc(=O)oc23)cc1 (configuration not stated)	8	-23	-0.7	-13	-0.2	3	.	26	.	.
COc1ccc(S(=O)(=O)N(C)CC(=O)N2CCOCC2)cc1	4	-2	0.9	-2	5.5	2	-2	1	-8	-1.7
CN(C)c1ccc(C2(O)C(=O)c3ccccc3C2=O)cc1	-1	30	0.0	-25	13	6	12	-18	13	-2.8
COc1ccc(NC(=O)C2CC(=O)NC(Nc3cccc(C)c3)=N2)cc1 (configuration not stated)	-2	-8	-0.1	-2	5.6	-7	.	-14	.	.
CC(C(=O)Nc1cccc([N+](=O)[O-])c1)[n+]1ccccc1 (configuration not stated)	-2	-10	0.3	?	0.8	-2	8	-7	1	0.3
CS(=O)(=O)N1CCc2cc(-c3csc(NC(=O)C(c4ccccc4)c4ccccc4)n3)ccc21	9	2	-0.2	7	1.7	16	.	61*	.	.
O=C(/C=C/c1ccc(Cl)cc1Cl)c1ccc[nH]1	-3	-4	-1.6	8	8.0	2	-12	-2	-12	-2.6
CCOc1cc(C)c(Cl)cc1S(=O)(=O)n1cnc2ccccc21	0	-26	0.9	-16	7.4	-9	.	8	.	.

# Rewritten with two lines to a compound: part of the list above.
# Every second line gives: Beta cell apopt | ALR inh | Bfl-1 A1 inh | Calb FLC | LANA-H2B inh | Beta2AR agonist | Ecoli rRNA inh | T cruzi repl | Ecoli rRNA inh OD600 | Ecoli rRNA inh RFP
Cc1nn(Cc2cccc(C(N)=O)c2)c(C)c1Br
→ -6 | -6 | 0.5 | -4 | -2.5 | -1 | -17 | 1 | -8 | 0.3
CCOc1ccc(-c2cc(C)n3nc(C(N)=O)cc3n2)cc1
→ 3 | 0 | 2.8 | 3 | 1.3 | -3 | . | -18 | . | .
O=C(NCc1cccnc1)Nc1ccc2c(c1)OCO2
→ 1 | -5 | -0.4 | -7 | 0.3 | -2 | 14 | -1 | 13 | -0.4
N#Cc1ccc(Oc2ccc(C(F)(F)F)cc2NC(=O)c2ccc(F)cc2)cc1
→ . | -2 | 1.0 | 18 | 0.0 | -2 | -9 | 25 | -5 | -2.1

# One compound at a time (already shown). Values in the order: Beta cell apopt	ALR inh	Bfl-1 A1 inh	Calb FLC	LANA-H2B inh	Beta2AR agonist	Ecoli rRNA inh	T cruzi repl	Ecoli rRNA inh OD600	Ecoli rRNA inh RFP
# Record of COc1ccc(NCc2cc3cc(OC)ccc3[nH]c2=O)cc1 → 6	35	0.3	-1	2.7	0	-9	-5	6	5.7
# Record of CCOc1ccc(-c2cc(C)n3nc(C(N)=O)cc3n2)cc1 → 3	0	2.8	3	1.3	-3	.	-18	.	.

# Carrying on:
Molecule	Beta cell apopt	ALR inh	Bfl-1 A1 inh	Calb FLC	LANA-H2B inh	Beta2AR agonist	Ecoli rRNA inh	T cruzi repl	Ecoli rRNA inh OD600	Ecoli rRNA inh RFP
COc1ccc(CCC(=O)OCC(=O)Nc2ccc3[nH]c(=O)[nH]c3c2)cc1	-6	0	-0.8	2	5.7	-4	2	-2	8	-2.4
COc1cc(C(=S)N2CCCC2)cc(OC)c1OC	0	1	-0.4	16	3.3	2	21	-6	12	-3.0
COc1ccc(C(=O)OCc2cc(C)ccc2C)cc1S(=O)(=O)N1CCCC1	8	1	-0.2	.	-1.8	7	-1	.	-20	-0.6
Nc1nnc(SC2CCCC2)s1	-10	.	-0.7	-2	-4.7	-3	11	-3	5	-5.0
FC(F)(F)C1=CC(c2ccc(Br)cc2)=NCCN1	1	100*	-0.5	-1	-1.2	-4	.	.	.	.
O=C(Nc1ccc(S(=O)(=O)N2CCCCCC2)cc1)c1c(F)cccc1F	9	-2	-0.8	-2	2.4	4	-4	3	-21	-2.0
C(=C\c1ccccc1)/CSc1nc2ncccc2[nH]1	-4	.	-0.7	-21	-2.2	-8	13	9	12	5.5
COc1ccc(NS(=O)(=O)c2ccc(NC(=O)c3ccccc3)cc2)nn1	3	-1	-0.5	-1	-1.6	3	-11	-7	-5	-2.7
Cc1cc(CNC(=O)[C@H](C)[C@@H]2C[C@@]2(C)[C@@H](NC(=O)OCc2ccccc2)c2ccccc2)nn1C	2	-4	0.1	.	2.1	1	-3	.	-13	-7.1
Cc1ccc2nc(C)c(C(=O)N/N=C/c3cccs3)n2c1	-2	3	0.0	-15	6.1	-11	2	-23	4	-1.1
O=C(CN1CCOCC1)Nc1ccc(Oc2ccc(NC(=O)CN3CCOCC3)cc2)cc1	-8	-8	0.4	-7	-1.9	1	.	-18	.	.
COc1ccccc1OCC(=O)Nc1ccc(S(=O)(=O)N2CCN(C)CC2)cc1	-4	-12	0.1	4	-2.1	2	11	-14	8	3.7
Nc1nc(CN2CCCCC2)cs1	.	.	1.2	-24	-8.0	6	.	-13	.	.
CCN(C(=O)COC(=O)c1oc2ccccc2c1C)c1c(N)n(Cc2ccccc2)c(=O)[nH]c1=O	-1	.	0.0	.	1.1	2	3	.	10	-0.4
N=C(N)SCc1ncccc1O	-5	-1	-0.6	-3	3.5	10	8	-5	7	2.2
COc1ccc(C(=O)N2CCN(c3ccc([N+](=O)[O-])c(-n4nc(C)cc4C)c3)CC2)cc1	14	-1	0.1	-4	2.9	-3	.	1	.	.
Cc1ccccc1C(=O)NCC(=O)Nc1ccc(C)c(S(=O)(=O)N2CCCCCC2)c1	-4	-2	0.4	-13	-7.7	0	-16	5	-23	1.2
CC(=O)c1cc(C#N)c(SCc2ccncc2)nc1C	-7	61	-0.1	0	-2.0	-2	.	18	.	.
CCN1CCN(c2ccc(NC(=O)c3cccc(S(=O)(=O)N4CCCC4)c3)cc2)CC1	-9	-7	-0.2	.	6.7	-5	6	.	13	0.8
Cc1ccc(S(=O)(=O)Nc2ccc(C(=O)Nc3ccncc3)cc2)cc1	.	-6	-0.3	-3	-4.9	12	-11	32	-35	-4.7
O=C(CNS(=O)(=O)c1cccc(C(F)(F)F)c1)NC1CCCCCC1	-1	1	0.4	.	-0.6	-12	-15	.	-20	-2.8
CCOCc1nnc(NC(=O)CSc2ccc(C)cc2)s1	2	.	-0.6	-10	-4.1	9	.	-13	.	.
CC(C)NC(=O)COC(=O)c1ccc(O)cc1	-8	1	0.4	-1	-4.1	-7	.	-9	.	.
Cc1cc(C)n(CC(O)COc2ccccc2C)n1 (configuration not stated)	4	-14	-0.8	-1	-3.0	-3	4	.	9	3.4
COc1ccc2[nH]c(=O)c(CN(c3ccc(C)c(C)c3)S(C)(=O)=O)cc2c1	-2	-31	0.2	-9	3.3	-11	17	-7	15	3.3
CCCCCC(=O)Nc1ccc(C(=O)COC(=O)c2ccccn2)cc1	-11	.	-0.6	-7	.	-2	3	-3	3	-0.3
Cc1nc(N)sc1-c1csc(Nc2cccc(C(=O)O)c2)n1	0	3	-2.0	0	6.0	-5	12	-5	11	2.3
Cc1cc(C)nc(NS(=O)(=O)c2ccc(NC(=O)Nc3ccccc3)cc2)n1	1	2	-3.9	-7	-1.2	26	-7	-19	-13	-3.3
COC(=O)CC1=NN(c2ccc(OC)cc2)C(=O)/C1=C\c1ccc(Cl)cc1	-2	1	0.4	-21	-1.1	-22	7	-4	12	-1.7
O=C(NCc1cccnc1)Nc1ccccc1F	2	-10	-0.5	-2	8.9	1	.	-8	.	.
CS(=O)(=O)N(Cc1nc2sc3c(c2c(=O)[nH]1)CCCC3)C1CCCCC1	3	-16	0.1	3	-4.0	.	.	11	.	.

# Assay outcomes from PubChem.
